# Beta2AR agonist: activates human beta-2 adrenergic receptor causing internalization; P07550; Am2.2-beta2AR cells, FAP receptor internalization, flow cytometry; reference of the scale not given here; response, % (concentration not given with the values); hit rate 0.43% among 340,000;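 active = response above a set limit, near 3 SD of response in nonfluorescent compounds, cut at about 42% in these data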;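 also: stock transfer was 100 nL into about 11 µL; a reference agonist was the positive control; negative values mostly stem from fluorescent compounds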
# Vif A3G: inhibitors of Vif binding to APOBEC3G peptide, primary screen, biochemical, TR-FRET, GST-Vif 1-94, biotin-A3G peptide, dose response retest (AID 1117319). TR-FRET GST-Vif / biotin-A3G peptide binding; higher % means a stronger effect; test concentration not given here; strong numbers were not always called active. inhibition, %, or IC50 in µM where a hit was titrated. hit rate 0.57% among 260,000;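 active = above the screen mean plus three standard deviations and confirmed in dose response; inconclusive = results disagree or hit not tested in dose response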;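 also: Vif residues 1-94 fused to GST binding biotinylated APOBEC3G peptide 110-148; 0% = full assay without inhibitor and 100% = GST in place of GST-Vif; retest series ran down from 100 µM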
# Ecoli growth: inhibitors of Escherichia coli growth; hit rate 0.21% among 330,000; AID 1053175; OD600, 23 h; hits give low values; OD600 absorbance (no concentration beside the values);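 active = OD600 absorbance below the run mean of sample wells minus 3.6 SD, in any replicate, cut at about 0.56 in these data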;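 also: stock transfer was 300 nL into about 60 µL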
# HNF4A DNA FP: change in binding of human HNF4 alpha to DNA | P41235 | HNF4a-FITC DNA binding, fluorescence polarization, 1 h | activity change, % at 10 µM | hit rate 0.3% among 360,000 | AID 1224865; in the data active = activity change above about 30%, passing the limit was not always enough;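 also: controls were the assay level and a saturating level of protein; the project sought stronger binding though the title names inhibitors; some compounds called inactive have numbers as strong as hits; positive values seem to mean higher polarization but the record does not say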
# LANA-H2A inh: blocks KSHV LANA binding to histone H2A/H2B; Q9QR71; cell-free LANA-H2A/H2B peptide, fluorescence polarization; inhibition, % (no concentration beside the values); hit rate 0.6% among 320,000; AID 2629; in the data active = inhibition mostly above about 10%, no sharp cut-off; inactive = mostly below about 6.7%;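 also: stock transfer was 7.5 nL into about 10 µL; 0% = median of vehicle wells and 100% = median of positive control wells; one replicate is shown; the record names a cut of 25% in any replicate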
# Target sequence (Q9QR71 whole entry, looked up): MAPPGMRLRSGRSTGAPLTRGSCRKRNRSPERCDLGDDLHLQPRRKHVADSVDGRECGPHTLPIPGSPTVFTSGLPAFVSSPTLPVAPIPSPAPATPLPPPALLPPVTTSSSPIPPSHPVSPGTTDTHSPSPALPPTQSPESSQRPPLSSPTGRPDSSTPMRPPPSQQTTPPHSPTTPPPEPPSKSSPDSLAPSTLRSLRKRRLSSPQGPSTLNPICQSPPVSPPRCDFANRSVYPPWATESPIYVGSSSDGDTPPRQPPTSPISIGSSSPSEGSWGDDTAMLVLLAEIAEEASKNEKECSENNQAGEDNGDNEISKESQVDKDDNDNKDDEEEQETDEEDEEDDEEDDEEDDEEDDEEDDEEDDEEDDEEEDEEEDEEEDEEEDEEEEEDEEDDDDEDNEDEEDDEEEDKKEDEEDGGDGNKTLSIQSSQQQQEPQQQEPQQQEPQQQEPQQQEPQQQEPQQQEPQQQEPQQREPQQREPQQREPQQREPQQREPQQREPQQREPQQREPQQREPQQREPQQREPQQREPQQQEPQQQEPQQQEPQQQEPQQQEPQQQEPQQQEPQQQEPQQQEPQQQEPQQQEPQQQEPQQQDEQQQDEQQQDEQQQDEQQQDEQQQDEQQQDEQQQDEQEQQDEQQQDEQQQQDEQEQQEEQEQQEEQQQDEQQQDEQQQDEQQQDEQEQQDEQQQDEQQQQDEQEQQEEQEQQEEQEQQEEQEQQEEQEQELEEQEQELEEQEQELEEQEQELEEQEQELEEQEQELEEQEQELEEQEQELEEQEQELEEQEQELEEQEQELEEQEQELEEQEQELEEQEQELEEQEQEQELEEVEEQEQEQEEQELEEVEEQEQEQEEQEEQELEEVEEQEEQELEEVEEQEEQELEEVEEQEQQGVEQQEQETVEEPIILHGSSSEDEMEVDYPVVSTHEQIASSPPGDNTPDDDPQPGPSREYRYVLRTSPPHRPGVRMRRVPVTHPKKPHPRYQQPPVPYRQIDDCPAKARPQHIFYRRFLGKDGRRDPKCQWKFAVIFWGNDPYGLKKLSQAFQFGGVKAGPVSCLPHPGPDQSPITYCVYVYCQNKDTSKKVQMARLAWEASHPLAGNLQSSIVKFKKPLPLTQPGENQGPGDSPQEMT
# UCH37 inh: inhibitors of human deubiquitinating enzyme UCH37. Q9Y5K5. purified proteasome/UCH37, Ub-AMC cleavage fluorescence. inhibition, % (no concentration beside the values). hit rate 0.33% among 330,000;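 active = mean of two replicates above 20%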;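 also: 0% = compound-free wells with enzyme and 100% = wells lacking proteasome; stock transfer was 100 nL into about 20 µL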
#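 Material: human UCH37 enzyme supplied as purified proteasome complex / Amount: 0.15 nM proteasome as dispensed / Buffer or medium: pH 7.4 Tris-HCl (50 mM) with ovalbumin, ATP-MgCl2, DTT / Times: preincubation 30 min, reaction 25 min, room temperature / Technique: AMC fluorescence from Ub-AMC cleavage, excitation 355 nm, emission 460 nm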
# Bfl-1 A1 inh: inhibitors of the anti-apoptotic protein A1, read as caspase activation. MEF A1-2A-BIM cells, Caspase-Glo 3/7 luminescence, 3 h; percent of clofoctol response, vehicle zero. caspase activation, % (test concentration not listed). hit rate 0.066% among 330,000;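 active = over half of replicate activation scores above 10%, or exactly half above 10 with the replicate mean above 10; inconclusive = replicate mean below 10 yet half the replicates above 10; inactive = over half of replicates below 10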;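 also: wells of about 30 µL received 50 nL stock; many hits fall short of the cut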
# * marks the source's active call; other numbers are inactive results; ? = inconclusive; · = no result given. Outcome played no part in choosing rows; about 2.1% have a hit in one of these screens.
canonical_smiles	Beta2AR agonist	Vif A3G	Ecoli growth	HNF4A DNA FP	LANA-H2A inh	UCH37 inh	Bfl-1 A1 inh
Cc1ccc(C)c(C(=O)CCC(=O)Nc2ccc(N3CCN(C)CC3)cc2C)c1	15.0	·	0.677	0.9	3.1	2.0	-0.5
Cc1ccc(C)c(NC(=O)c2cc(-c3ccccc3)nn2-c2ccccc2)c1	1.9	-0.4%	0.739	-3.7	-1.9	2.6	0.0
COc1ccc(NC(=O)CSc2ccccn2)cc1	-3.8	4.3%	0.669	2.2	-3.5	0.6	1.4
O=C(NCCCc1ccccc1)c1cncc(Br)c1	6.4	-5.8%	0.653	1.1	1.6	1.6	1.2
COc1ccccc1CNC(=O)COC(=O)c1ccc(S(=O)(=O)N2CCCC2)cc1	0.8	-0.5%	0.778	0.4	-0.1	1.0	1.6
O=C(c1ccccc1)N(Nc1ccccc1)c1ccccc1	1.2	11.5%	0.706	2.9	-3.9	1.4	0.3
N#CC1=C(N)Oc2cc(O)ccc2C1c1ccncc1 (stereo unspecified)	-5.0	5.8%	0.654	0.6	3.0	4.1	0.8
CCc1ccccc1NC1=NCC(=O)N1Cc1ccc2c(c1)OCO2	1.7	12.5%	0.727	-1.0	1.5	5.3	-1.1
CCN(CCCNC(=O)C1CCCN(S(=O)(=O)c2cnc[nH]2)C1)c1ccccc1 (stereo unspecified)	8.8	0.1%	0.756	1.4	2.3	4.7	0.4
NC(=O)c1nsc(C(=O)N(c2ccc(F)cc2)C(C(=O)NCC2CCCO2)c2ccc3ncccc3c2)c1N (stereo unspecified)	1.3	·	0.707	0.7	-3.5	-199.5	0.3
C/C(=N\NC(=O)c1nnn(-c2nonc2N)c1CN(C)c1ccccc1)c1cccc(O)c1	11.9	·	·	-0.2	-0.9	·	-0.5
CCOc1cc(C(=O)NC2CC(C)(C)NC(C)(C)C2)cc(OCC)c1OCC	-6.0	6.3%	0.605	0.8	4.6	3.6	0.5
CC(C)CC(=O)Nc1ccc(Oc2ccc(NC(=O)CC(C)C)cc2)cc1	-17.4	7.6%	0.741	5.5	3.8	4.0	0.2
C/C=C/c1ccc(OCCCNC2CCCC2)c(OC)c1	-3.5	1.7%	0.764	0.7	2.3	0.8	0.3
CC1CC(=O)Nc2ccccc2N1C(=O)Nc1ccc(F)cc1F (stereo unspecified)	-4.4	-3.4%	0.698	-2.4	-4.0	2.4	-0.7
CCOc1ccc(NC(=S)NC(=O)c2cncc(Br)c2)cc1	3.4	·	0.662	-2.4	-0.1	2.4	0.3
C=CCNc1nc(Cl)nc(Nc2ccc(OC)cc2OC)n1	-7.8	-1.4%	0.735	-2.3	3.1	0.8	-0.1
COc1ccccc1CC1(C)NC(=O)N(CC(=O)N2CC(C)OC(C)C2)C1=O (stereo unspecified)	-1.4	6.6%	0.698	1.7	22.7	2.0	0.1
Cc1ccc(OCC(=O)OC2CCS(=O)(=O)C2)cc1 (stereo unspecified)	10.7	-4.9%	0.629	0.4	-0.2	0.7	0.6
CCN(CC)CCCn1c2c(c(SCC(=O)Nc3nccs3)nc1=O)CCC2	-0.4	5.6%	0.695	1.4	-1.4	5.4	0.0
CC(C)Sc1nnc2n(CCc3ccccc3)c(=O)c3c4c(sc3n12)COC(C)(C)C4	·	·	0.787	·	1.9	0.7	0.2
O=C(OCC(=O)N(C1CCCCC1)C1CCCCC1)c1ccccc1O	10.5	0.0%	0.647	2.6	-1.3	0.6	-0.5
Cc1cccc(C(=O)NC2CCN(CC(=O)Nc3ccccc3Cl)CC2)c1	1.4	-2.6%	0.64	-0.6	1.9	4.3	0.8
COC(=O)[C@]1(Cc2ccccc2)N[C@H](CN(C)C(=O)c2ccc(C(C)(C)C)cc2)[C@@H]2C(=O)N(Cc3ccccc3)C(=O)[C@@H]21	1.6	2.7%	0.726	2.6	·	5.5	·
CCOc1ccc(S(=O)(=O)Nc2cccc(C(=O)NCC(c3ccccc3)N(C)C)c2)cc1 (stereo unspecified)	-2.5	5.9%	0.711	-3.6	·	3.5	-0.1
CC(C)c1ccc(NC(=O)NCc2ccc(F)cc2)cc1	2.7	-2.8%	0.69	1.6	-1.2	0.8	-0.9
CCOC(=O)N1N=C(CC)CC1(O)C(F)(F)F (stereo unspecified)	18.1	13.2%	0.715	2.0	2.2	4.3	-0.1
CCN1CCN(C(=O)c2c(-c3c(Cl)cccc3Cl)noc2C)CC1	3.6	·	0.689	-0.1	-1.8	-1.1	-0.5
Cc1noc(C)c1CSCC(=O)Nc1cccc(C(F)(F)F)c1	1.8	·	0.707	1.3	-3.8	5.7	-1.2
CCCn1c(SCC(=O)C(C)(C)C)nc2ccccc21	-15.8	-2.0%	0.692	0.3	16.2	-0.4	-0.4
Cc1ccc(NS(=O)(=O)c2c(C)[nH]c(C)c2C(=O)N2CCCCC2)cc1Cl	1.4	·	0.683	1.0	2.0	4.6	-0.3
O=S(=O)(/N=S1\CC=CCN1S(=O)(=O)c1ccccc1)c1ccccc1 (stereo unspecified)	-4.0	-15.7%	0.702	-1.6	·	3.2	·
C=C(C)Cn1c(COc2ccccc2)nnc1SCC(=O)O	5.3	0.0%	0.688	0.8	-0.7	-3.0	-0.3
CCc1sc(C(=O)NCCc2ccc(S(N)(=O)=O)cc2)cc1Br	5.6	3.5%	0.69	-5.5	-5.3	2.5	0.5
Cc1ccc(C(=O)N/C(=C\c2cn(C)c3ccccc23)C(=O)N2CCN(C)CC2)cc1	7.8	·	0.701	0.8	-4.2	8.2	1.0
O=C(Nc1nc(-c2cc(F)ccc2F)cs1)C1=COCCO1	6.8	0.5%	0.681	2.2	-1.7	5.8	0.1
N#Cc1cccnc1Nc1ccc(Cl)cc1	-2.4	9.0%	0.691	4.0	0.8	-2.1	-0.5
CCOC(=O)C1CCCN(c2c(NCCc3ccc(Cl)cc3)c(=O)c2=O)C1 (stereo unspecified)	2.6	14.7%	0.64	5.8	3.6	3.1	0.3
CCOC(=O)CC1C(=O)NCCN1C(=O)c1cccc(C(F)(F)F)c1 (stereo unspecified)	2.0	-9.0%	0.713	2.8	0.4	-0.8	0.5
Cc1cc(C)nc(SCc2cc(=O)c(OC(=O)c3ccc(S(=O)(=O)N4CCCC4)cc3)co2)n1	13.7	-10.5%	0.686	-3.8	-1.8	3.6	0.6
Cc1ccc(NC(=O)c2ccco2)c([N+](=O)[O-])c1	13.3	-5.6%	0.673	2.0	2.7	4.2	-3.8
COCCCNC(=O)C1CCC(CNS(=O)(=O)c2ccc3c(c2)N(C(C)=O)CCO3)CC1 (stereo unspecified)	3.4	·	0.704	3.3	1.2	-0.5	-0.5
COc1cccc(CCC(=O)Nc2cc3c(cc2C(=O)O)OCCCO3)c1OC	-3.3	10.5%	0.734	-0.1	1.6	1.2	0.0
CCc1ccc(N2CC(C(=O)N/N=C/c3cccc([N+](=O)[O-])c3)CC2=O)cc1 (stereo unspecified)	7.2	-0.9%	·	-1.8	1.7	·	0.2
O=c1c2cnn(-c3ccccc3)c2nc(-c2cccs2)n1-c1ccc(Br)cc1	6.2	0.3%	0.745	2.4	4.5	-7.0	0.4
CSc1nnc(SCC#N)s1	11.4	0.5%	0.659	0.6	-5.4	3.8	-0.1
CCOC(=O)N1CCC(NC(=O)CSCc2nc(-c3ccc(OC)c(OC)c3)oc2C)CC1	-6.6	-2.6%	0.672	-3.2	-4.0	1.9	0.1
O=C(OCCOc1cccc(Cl)c1)c1cc(S(=O)(=O)N2CCCCC2)ccc1N1CCOCC1	5.7	2.9%	0.677	1.0	-3.3	-1.4	-0.2
Cc1nc2cc(OCc3cc(C(=O)NC(C)c4cn(C)nc4C)no3)ccc2s1 (stereo unspecified)	-6.5	-0.7%	0.697	-2.4	-2.9	0.4	-0.1
O=[N+]([O-])c1ccc(COc2cccc(CN3CCCCC3)c2)cc1	0.5	-6.5%	·	-0.5	·	·	·
Fc1ccc(-c2onc3ccc(C4OCCO4)cc23)cc1	37.1	1.2%	0.651	-0.8	3.1	1.5	-0.1
CC(C)(C)NC(=O)Cn1c(=O)oc2cc(S(=O)(=O)N3CCc4ccccc43)ccc21	0.5	1.8%	0.777	2.8	1.5	6.5	0.1
Cc1n[nH]c(C)c1S(=O)(=O)N(CC(=O)Nc1ccc2c(c1)OCCO2)c1ccc(C(C)C)cc1	3.2	1.0%	0.739	4.4	-2.6	9.6	0.2
CN(CC(=O)Nc1ccc(F)cc1)C(=O)COc1ccccc1Cc1ccccc1	3.6	6.8%	0.628	-1.0	1.7	1.5	-0.1
O=C1CC(NNC(=O)c2ccccc2)C(=O)N1 (stereo unspecified)	-1.8	0.4%	0.726	-1.5	2.6	4.6	-0.5
CCOC(=O)c1cnc2c(OC)cccc2c1N1CCN(c2ccc(OC)cc2)CC1	17.1	-3.9%	0.72	-2.3	6.1	6.9	-0.6
O=C(CCS(=O)(=O)c1ccc(Cl)cc1)Nc1ccccc1Br	-5.1	-8.2%	0.701	-0.5	-2.5	0.3	0.1
C=CCOc1ccc(C2NC(=O)c3ccccc3O2)cc1 (stereo unspecified)	-3.0	·	0.635	0.8	-3.6	0.2	0.4
O=C(O)c1cn(-c2ccccc2)nc1-c1cccnc1	-0.5	-2.1%	0.658	0.1	-2.0	-0.3	-0.3
O=C(Nc1ccc(Cl)cc1)C(c1ccccc1)N1CCOCC1 (stereo unspecified)	15.9	-7.5%	0.755	-1.3	2.4	0.4	-0.9

# Additional compounds follow.
canonical_smiles	Beta2AR agonist	Vif A3G	Ecoli growth	HNF4A DNA FP	LANA-H2A inh	UCH37 inh	Bfl-1 A1 inh
Cc1ccc(Cl)cc1NC(=O)C1CC(=O)Nc2ncnn21 (stereo unspecified)	1.0	-3.6%	0.672	3.0	3.2	3.2	0.0
Oc1csc(Cc2nc(-c3ccccc3F)cs2)n1	5.4	·	0.756	9.0	3.5	3.2	0.0
O=C(CSc1ccc(-c2cccnc2)nn1)c1ccc([N+](=O)[O-])cc1	-12.7	27.2%	0.64	-0.5	0.5	4.3	0.2
Cc1c(C(=O)NCc2ccccc2)oc2c1C(=O)CCC2	5.8	3.4%	0.681	0.1	3.4	25.2*	-0.6
Cc1csc2nc(O)c(C(=O)NCCN3CCOCC3)c(=O)n12	-0.8	-0.9%	0.636	-3.2	-3.3	1.6	1.0
CCc1ccc(NC(=O)CSc2nnc(CNC(=O)c3cccs3)o2)cc1	-4.7	·	0.625	0.2	0.0	5.1	-0.1
COC(=O)C1(C(=O)OC)Sc2ccccc2C1=O	7.1	?	0.68	-1.5	3.9	-1.7	0.9
Cc1occc1-c1nnc(SCC(=O)Nc2ccccc2)n1C	1.1	2.0%	0.629	-2.4	-0.1	-1.0	0.0
O=C(OCC(=O)c1ccc[nH]1)c1ccc(C(F)(F)F)cc1	-2.4	-2.6%	0.719	2.2	-1.4	4.8	-0.9
Cc1ccc(NC(=O)COC(=O)C2(c3ccc(Cl)cc3)CCCC2)cc1	31.7	·	0.691	1.7	6.4	4.3	-0.3
Cc1nc(-c2ccncc2)sc1C(=O)Nc1ccc(Br)cc1	2.3	?	0.687	0.3	-3.3	2.7	-0.2

# Compound activity: PubChem BioAssay, several laboratories
